Assay outcomes from PubChem.
HIV Rev-RRE inh: inhibitors of HIV-1 Rev-RRE RNA interaction. Rev peptide-RRE RNA binding, FRET. 0.79% of 97,000 active. inhibition, % at 8 µM;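 active = inhibition above the screen-wide mean plus 3 SD, cut at about 35% in these data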;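 also: 0% = median DMSO wells and 100% = median Neomycin B control wells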
Target sequence (P05866 whole entry, looked up): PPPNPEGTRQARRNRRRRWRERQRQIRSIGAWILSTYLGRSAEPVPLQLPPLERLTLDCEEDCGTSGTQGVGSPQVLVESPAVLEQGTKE
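System: Cy5-labelled duplex RRE RNA binding fluorescein-labelled HIV Rev peptide; Signal: fluorescein-to-Cy5 FRET, 480 nm excitation; Also added: labelled Rev peptide; Compound: one concentration, 8 µM nominal; Buffer or medium: HEPES pH 7.5 salt buffer with EDTA; Read-out: % inhibition of FRET ratio versus controls; Schedule: 5 min preincubation and 15 min binding, 25 °C.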
Candida biofilm: kills Candida albicans biofilms; C. albicans biofilm + clotrimazole, Alamar Blue; inhibition, % at 6 µM; 0.14% of 85,000 active;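 active = inhibition above 20%; inactive = inhibition below 20%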;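 also: preformed 24 hr biofilms exposed to compound for 48 hr; 0% = biofilm without compound and 100% = blank killed by clotrimazole plus chlorhexidine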
PLK1 kinase inh: blocks human PLK1 kinase activity; P53350; recombinant PLK1 kinase, TR-FRET peptide phosphorylation; inhibition, % at 10 µM; 0.53% of 97,000 active; AID 619;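 active = inhibition of 50% or more in the single-concentration screen; inactive = inhibition below 50%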;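 also: 0% = DMSO max control and 100% = H-89 dihydrochloride min control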
LYP act: increases human PTPN22 phosphatase activity; recombinant LYP, DiFMUP fluorescence; 0 = plate median, 100 = signal doubled; 0.11% of 96,000 active; Q9Y2R2; activation, % at 2 µM;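 active = activation at 2 µM above a set limit, the mean plus 5 SD, cut at about 37% in these data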
Target sequence (Q9Y2R2 whole entry, looked up): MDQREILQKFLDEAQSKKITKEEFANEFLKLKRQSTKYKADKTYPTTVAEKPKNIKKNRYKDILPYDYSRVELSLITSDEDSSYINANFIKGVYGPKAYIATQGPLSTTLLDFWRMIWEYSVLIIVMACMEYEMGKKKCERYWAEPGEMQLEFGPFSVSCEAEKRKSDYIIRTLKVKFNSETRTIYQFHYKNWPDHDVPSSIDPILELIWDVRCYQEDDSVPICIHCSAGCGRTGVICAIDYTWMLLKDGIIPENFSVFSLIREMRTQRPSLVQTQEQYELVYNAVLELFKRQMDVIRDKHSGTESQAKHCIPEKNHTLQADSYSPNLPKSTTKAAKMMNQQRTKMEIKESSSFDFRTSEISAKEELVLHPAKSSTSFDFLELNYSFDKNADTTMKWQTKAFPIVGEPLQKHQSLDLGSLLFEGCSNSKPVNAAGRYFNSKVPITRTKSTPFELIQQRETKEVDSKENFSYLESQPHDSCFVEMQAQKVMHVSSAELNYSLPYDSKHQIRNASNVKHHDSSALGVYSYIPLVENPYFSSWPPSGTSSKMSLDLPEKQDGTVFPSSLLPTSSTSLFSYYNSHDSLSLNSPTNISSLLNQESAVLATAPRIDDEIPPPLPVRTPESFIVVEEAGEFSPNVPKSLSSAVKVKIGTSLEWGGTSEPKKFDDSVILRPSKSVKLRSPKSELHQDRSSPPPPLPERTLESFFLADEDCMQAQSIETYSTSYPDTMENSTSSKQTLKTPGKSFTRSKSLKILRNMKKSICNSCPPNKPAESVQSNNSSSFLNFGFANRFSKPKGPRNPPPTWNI
EphB4 ephrin blk: EphB4-ephrin-B2 interaction antagonism | P54760 | EphB4 LBD / TNYL-RAW-Alexa532 peptide, fluorescence polarization | inhibition, % at 7 µM | 0.15% of 97,000 active;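 active = inhibition above the screen-wide mean inhibition plus 3 SD, cut at about 15% in these data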;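 also: 0% = DMSO wells and 100% = excess unlabeled TNYL-RAW peptide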
PTPN22 inh 2: inhibitors of human LYP (PTPN22) phosphatase; Q9Y2R2; recombinant LYP catalytic domain, DiFMUP fluorescence; inhibition, % at 2 µM; 0.21% of 96,000 active; AID 640;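 active = inhibition at 2 µM at or above a set limit, the screen mean plus 3 SD, cut at about 24% in these data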;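 also: 0% = DMSO with enzyme and 100% = enzyme fully blocked by orthovanadate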
PLK1 PBD inh: blocks phosphopeptide binding to human Plk1 polo box domain; P53350; Plk1 PBD phosphopeptide binding, fluorescence polarization; inhibition, %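 (tested at about 20 µM)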; 0.13% of 97,000 active; AID 693; in the data active = inhibition above about 34%, passing the limit was not always enough
Numbers without * were called inactive; . = no result given; [ ] = dose if it differs, or a comment. Only part of the results is shown, so the mix of outcomes need not match the whole.

canonical_smiles	HIV Rev-RRE inh	Candida biofilm	PLK1 kinase inh	LYP act	EphB4 ephrin blk	PTPN22 inh 2	PLK1 PBD inh
CCC(C)NC(=O)C1CC(c2ccc(OC)cc2)=NO1 (stereo not given)	-3	1	-2	0	-1	0	-10
COC(=O)c1ccccc1Oc1c(F)c(F)nc(N2CCOCC2)c1F	11	9	-11	2	5	-5	2
COc1cc(C2NC(=O)NC(c3ccccc3)=C2C(C)=O)ccc1OCC(=O)O (stereo not given)	13	7	-4	0	10	-1	-7
O=C(Nc1cc(Sc2ccccn2)cc([N+](=O)[O-])c1)c1ccc(Cl)cc1	-5	.	-10	-3	-4	6	-22
O=C(Nc1ccccn1)C(NS(=O)(=O)c1cccc2nsnc12)c1ccccc1 (stereo not given)	0	5	-7	3	-1	-3	6
N#Cc1ccccc1CN1C(=O)S/C(=C/c2cccn2-c2cccc(C(=O)O)c2)C1=O	1	.	-1	-30	-2	33*	-7
CCCCOc1ncnc2c1[nH]c1ccc(OC)cc12	2	5	-5	2	-9	2	-8
CCOC(=O)c1sc(C)c2c(=O)n(Cc3ccc(Cl)cc3)c(C)nc12	14	.	-13	-18	-3	20	-18
N#CC1=C(N)OC2=C(C(=O)CC(c3ccco3)C2)C1c1ccc(OCc2c(F)cccc2Cl)cc1 (stereo not given)	4	4	-10	-1	4	3	3
COc1cc(/C=N/NC(=O)c2cncc(Br)c2)ccc1OC(=O)c1ccc2c(c1)OCO2	3	.	-14	-1	2	3	-16
CS(=O)(=O)N1N=C(c2ccc(Br)cc2)CC1c1ccc2c(c1)OCO2 (stereo not given)	4	.	-17	-2	5	7	1
CC(C)NS(=O)(=O)c1ccc(NC(=S)NC(=O)c2ccc(-c3ccccc3)cc2)cc1	-3	.	-6	-8	-7	13	29
CCCCn1c(Cl)nc2c1c(=O)n(C)c(=O)n2C	-2	8	3	8	-12	-8	-10
CCCCN1C(=O)CC(Sc2ccccc2C(=O)O)C1=O (stereo not given)	6	7	-5	-3	-5	7	5
COc1ccc(C2=NN(C)C(=NCc3ccccc3)SC2)cc1	10	6	-4	8	4	-6	-7
CSc1nnc(-c2ccc(Cl)cc2Cl)o1	6	2	-2	-1	-2	3	-6
Cc1ccc(-c2csc(Cc3nc(-c4cc5ccccc5oc4=O)cs3)n2)cc1	15	.	-15	-9	-1	12	-4
COc1ccc(C(=O)Nc2cc(OCc3ccccc3)c(Cl)cc2Cl)cc1	9	.	-7	0	-2	5	-10
Brc1ccc(CSc2nccn2-c2ccccc2)cc1	11	.	-3	-7	7	10	-39
O=C(O)/C=C/C(=O)Nc1ccccc1-c1ccccc1	6	.	-8	4	1	0	6
COC(=O)C1=C(C(=O)c2ccc(C)cc2)C(c2ccccc2)n2nnnc2N1 (stereo not given)	2	0	-13	13	7	-11	4
CN(C)c1ccc(/C=N/NC(=S)NCc2ccccc2)cc1	-5	.	-16	-11	-6	15	10
O=C(NC1CCS(=O)(=O)C1)c1c(NC(=O)C2COc3ccccc3O2)sc2c1CCCC2 (stereo not given)	1	7	-17	4	-3	-2	2
COc1ccc(S(=O)(=O)N2CCN(CC(=O)Nc3cc(C(F)(F)F)ccc3Cl)CC2)cc1	0	2	-5	-8	11	11	-46
Cc1ccc(S(=O)(=O)CCC(=O)Nc2nc3c(s2)CCCC3)cc1	12	7	-4	14	5	-11	-13
O=C(Nc1nc(-c2ccccc2)c(-c2ccccc2)o1)c1ccc(F)cc1	10	.	1	2	5	0	-15
Cc1cc(C(F)(F)F)nc(SCC(=O)c2cccc([N+](=O)[O-])c2)n1	9	.	-6	3	-1	1	-19
COc1ccc(N2CCc3c(C)nc4c(OC)cc(OC)cc4c32)c(OC)c1	-2	.	-10	0	-5	2	-27
Cc1cc(C)c(S(=O)(=O)NCC2CCC(C(=O)NCc3ccc4c(c3)OCO4)CC2)c(C)c1 (stereo not given)	2	.	-10	-6	5	4	-7
CCOC(=O)CN1C(=O)C(Sc2n[nH]c(-c3ccc(C)cc3)n2)CCc2ccccc21 (stereo not given)	14	.	-10	12	2	-6	-6
Brc1ccc(N=C/C=C/C=C/Nc2ccc(Br)cc2)cc1	6	-2	-9	6	1	-4	-18
COCCNC(=O)c1cc(-c2ccc(OC)c(OC)c2)on1	4	.	0	0	2	-1	9
CC(=O)C1=C(C)OC(N)=C(C#N)C1c1cc2cccc(C)c2nc1Cl (stereo not given)	6	.	-2	-1	-5	3	22
Cc1nc2sc3c(c2c(=N)n1N)CC(C)(C)OC3	4	.	-4	10	-1	-6	-6
COc1cc(Nc2nc(-c3ccccc3)c3cc(C)ccc3n2)cc(OC)c1OC	-3	.	-11	6	-5	-9	-6
COc1cccc(N(CC(=O)Nc2cccc(C(C)=O)c2)S(C)(=O)=O)c1	3	3	-1	7	-8	-9	11
CCOc1ccc(N2CC(C(=O)NC(C)C)CC2=O)cc1 (stereo not given)	4	4	-14	9	2	-8	11
CCC(C)C(NS(=O)(=O)c1ccc(C)cc1)C(=O)Oc1ccc2c3c(c(=O)oc2c1)CCC3 (stereo not given)	2	.	-16	-14	-2	16	-15
Cc1cc(OCC(F)(F)C(F)(F)C(F)(F)C(F)F)nc(N)n1	14	5	-13	1	5	1	24
CCc1ccc(Cn2nnc(C(=O)NCc3ccccc3OC)c2N)cc1	6	0	-9	6	1	-9	-15
CCc1ccc(C(=O)c2oc3nc(C)cc(C)c3c2N)cc1	-3	7	-9	1	1	2	14
Cc1ccc2occ(/C=C/C(=O)c3ccccc3O)c(=O)c2c1	13	.	-11	-2	-9	2	-9
CCC(C)(C)NC(=O)CC(c1ccc(OC)cc1)n1cccc1 (stereo not given)	-3	10	0	-7	0	8	-12
Cc1ccc2nc(CSc3nc(C)cc(C)c3C#N)[nH]c2c1	0	.	-8	13	-9	-10	-23
Cc1ccc(C(=O)N2CCN(C3c4cccc5cccc(c45)C3NS(=O)(=O)c3ccccc3)CC2)cc1 (stereo not given)	3	5	-4	-1	2	2	-29
NNC(=O)c1cn2ccccc2n1	0	.	-14	-6	-6	9	22
O=C(/C=C/c1ccccc1)N/C(=C/c1ccccc1)C(=O)NCCO	7	.	-7	4	-3	-2	12
CCOC(=O)c1c(C)n(C)c2ccc(OC)c(NC(=O)CN3CCN(Cc4ccccc4)CC3)c12	0	5	8	1	0	-4	-1
O=C(NCc1ccccn1)c1cccc([N+](=O)[O-])c1	9	.	-9	-4	0	3	15
O=C(O)C1C2C=CC(O2)C1C(=O)NC1CCCc2ccccc21 (stereo not given)	7	3	-6	2	4	-5	-13
CC(=O)Oc1c(S(=O)(=O)c2ccc(C)cc2)c(C)nn1C(C)(C)C	7	7	-2	-8	7	8	-17
Cc1ccc(C(=O)c2ccccc2C(=O)O)s1	2	6	-11	1	-1	3	-7
CSc1ccc(CCNC(=O)CSc2ccsc2[N+](=O)[O-])cc1	5	.	-8	9	-10	-4	-16
CCOC(=O)c1[nH]c(C)c(C(=O)N2CCc3ccccc32)c1C	3	5	-12	13	-7	-15	-2
O=C(CNc1cccc2ccccc12)N/N=C/C(Br)=C/c1ccccc1	2	-1	-5	-4	6	6	-22
C1CCN(c2nc3nonc3nc2N2CCCC2)C1	5	.	-32	-2	-14	1	-25
CCOC(=O)N1CCN(C(=O)Cc2ccsc2)CC1	0	4	-5	-12	-4	10	-6
COc1ccc(OC)c(N2CC(O)=C(c3nc4ccccc4s3)C2=N)c1	11	-2	-7	0	7	2	-38
Cc1ccc(-c2cc(C(=O)N3CCN(c4ccc(F)cc4)CC3)c3ccccc3n2)o1	3	.	-12	-10	5	13	-6
Cc1ccc(C(=O)NCC(=O)NCC(=O)OCC(=O)c2ccc([N+](=O)[O-])cc2)cc1	6	.	21	2	1	-2	-3

Rewritten with each value named: entries from further up
CCOC(=O)N1CCN(C(=O)Cc2ccsc2)CC1
  HIV Rev-RRE inh: 0 | Candida biofilm: 4 | PLK1 kinase inh: -5 | LYP act: -12 | EphB4 ephrin blk: -4 | PTPN22 inh 2: 10 | PLK1 PBD inh: -6

COc1ccc(OC)c(N2CC(O)=C(c3nc4ccccc4s3)C2=N)c1
  HIV Rev-RRE inh: 11 | Candida biofilm: -2 | PLK1 kinase inh: -7 | LYP act: 0 | EphB4 ephrin blk: 7 | PTPN22 inh 2: 2 | PLK1 PBD inh: -38

Cc1ccc(-c2cc(C(=O)N3CCN(c4ccc(F)cc4)CC3)c3ccccc3n2)o1
  HIV Rev-RRE inh: 3 | Candida biofilm: . | PLK1 kinase inh: -12 | LYP act: -10 | EphB4 ephrin blk: 5 | PTPN22 inh 2: 13 | PLK1 PBD inh: -6

(cont.)
canonical_smiles	HIV Rev-RRE inh	Candida biofilm	PLK1 kinase inh	LYP act	EphB4 ephrin blk	PTPN22 inh 2	PLK1 PBD inh
CCn1c2ccccc2c2cc(NC(=O)C(C)C)ccc21	9	1	-14	-6	9	6	4
CCN(CC)S(=O)(=O)c1ccc(Cl)c(NC(=O)c2ccccc2C)c1	7	.	-15	-8	5	12	-4
C=CCNc1cnn(-c2ccc(C)cc2)c(=O)c1Cl	-2	.	-6	10	-1	-9	20
O=C(Nc1ccc2c(c1)OCCO2)c1cc2sccc2n1Cc1ccccc1	3	4	-12	9	-5	-8	-34
Cc1ccc(NC(=O)COc2ccc(S(=O)(=O)N3CCOCC3)cc2)cc1	3	0	-2	6	6	-3	-10
O=C1c2ccccc2CCCC12N=NCC2c1cccc2ccccc12 (stereo not given)	9	.	-7	-10	2	14	20
O=C(NCc1ccco1)C(c1ccccc1)N(C(=O)Cc1cccs1)c1ccccc1F (stereo not given)	4	4	0	-12	3	13	-7
Cc1ccc(NC(=O)c2cc(Cl)nc3ccccc23)cc1	9	.	-3	0	4	2	-14
COc1cccc(C2NC(c3cccc(OC)c3O)C(C)C(=O)C2C)c1O (stereo not given)	2	7	-10	-1	-6	5	14
CCCCN1C2=C(C(=O)CCC2)C(c2ccc(Cl)c(Cl)c2)C2=C1c1ccccc1C2=O (stereo not given)	16	.	-11	-6	8	9	22
COC(=O)c1c(C)n(-c2ccccc2)c2ccc(O)cc12	4	4	1	-6	3	6	-2
CCC(C)NC(=O)CCC(=O)Nc1ccc2nc(N3CCOCC3)cc(C)c2c1 (stereo not given)	4	0	-3	-5	-11	5	-15
Cc1c(-n2cc(C(=O)c3cc(Cl)ccc3O)cc(C#N)c2=O)c(=O)n(-c2ccccc2)n1C	83*[fluorescence artefact?]	5	-7	15	11	-12	-107
CCC(=O)NC(=S)Nc1ccc(S(=O)(=O)NC(C)=O)cc1	7	.	-10	-8	3	11	-11
O=C(O)c1ccccc1-c1ccccc1C(=O)NCCCO	1	5	-2	1	-6	1	9
Cc1oc2c(O)c(O)ccc2c(=O)c1-c1cnn(-c2ccccc2)c1	-4	.	40	-8	-1	6	0
Cn1c(Nn2cnnc2)nc2ccccc21	8	1	-1	-2	-2	-1	-30
Cc1ccc(NCCC(=O)c2ccc(Cl)c(Cl)c2)cc1	2	.	-9	10	-3	-4	-10
O=C(Nc1ccc(Cl)cc1)OC(CN1CCCCC1)C(F)(F)F (stereo not given)	15	.	-10	6	-1	-3	-19
Clc1ccc(OCc2cnc(Cl)s2)cc1	8	.	-10	-3	-3	6	18
CC(=O)N1CC(=O)N(OCc2ccccc2)C1c1ccc(Cl)cc1Cl (stereo not given)	1	10	-7	-4	1	1	18
CCn1c(COc2ccc(OC)cc2)nc2ccccc21	4	1	-5	-9	-1	11	20
Oc1[nH]c2ccccc2c1N=Nc1ccc(C(F)(F)F)cn1	16	.	2	5	-6	-2	1
Cc1sc2nc(SCc3ccccc3)n(Cc3ccco3)c(=O)c2c1C	12	1	-9	-4	4	7	-9
CCOC(=O)Cc1csc(N/N=C/c2ccc(C(F)(F)F)cc2)n1	6	.	-3	4	7	0	29
CC1CCCC(C)N1C(=O)Cn1cc(/C=C2/C(=O)Nc3ccccc32)c2ccccc21 (stereo not given)	11	-1	-9	-7	2	4	-13
O=S(=O)(Nc1ccc(S(=O)(=O)N2CCCCC2)cc1)c1cccs1	3	8	-12	10	-1	-13	7
